# Screens as filed in PubChem.
# NPYLR7 agonist: agonists of mosquito NPYLR7 receptor, primary screen, cell-based, Aedes aegypti, calcium fluorescence, mosquito biting behavior | Aedes aegypti neuropeptide Y-like receptor 7 (NPYLR7) | HEK293T NPYLR7/Galpha15, GCaMP6s calcium fluorescence | activation, % at 10 µM | hit rate 0.15% among 270,000 | AID 1259423, 2018; in the data active = activation above about 40%;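 note: 0% = vehicle and 100% = reference agonist at the receptor; some compounds past the cut are filed as inactive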
# NPYLR7 agonist max-min: further read-out of NPYLR7 agonist, marked with its call; activation, %; measured here: Max-Min RFU normalised activation; some inactives read as strong as hits;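 span of the calcium signal over five minutes; 0% = vehicle and 100% = native peptide agonist; compound fluorescence can raise it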
# Active calls of the source: *; i = inactive; & = joins results of further samples. Not all compounds are listed; count on the stated rates, not on these rows.
molecule	NPYLR7 agonist	NPYLR7 agonist max-min
CCc1cccc(NC(=O)C2CCCN(C(C)=O)C2)c1 (stereo not given)	-1	-1
COc1ccc(-c2nnc3ccc(SCC(=O)Nc4nc(C)cs4)nn23)cc1	0	11
Cc1cc(NC(=O)C(C)N(C)Cc2cccc(Cl)c2Cl)no1 (stereo not given)	1	-1
Cc1ccccc1-n1ncc(C(C)NC(=O)CN2CCOc3ccccc3C2)c1C (stereo not given)	6	6
COc1ccc(C(=O)N2CCC3(CC2)C(=O)N(CC(=O)N2CCC(Cc4ccccc4)CC2)CN3c2ccccc2)c(OC)c1	28	22
Cc1nc(C)n(CC(C)C(=O)N2CCc3c(ncnc3N(C)C)C2)n1 (stereo not given)	5	3
CCn1cc(C(CC(=O)N2CCN(C/C=C/c3ccccc3)CC2)c2cccc(OC)c2)c2ccccc21 (stereo not given)	1	9
COc1cc(NC(=O)Cn2ccn3nc(-c4ccc(C)cc4)cc3c2=O)cc(OC)c1	6	4
O=S(=O)(NCCc1csc2nc(-c3ccccc3F)nn12)c1ccc(Br)cc1	10	8
CCOc1cccc(C[C@@H]2CC[C@H](CN3CCOCC3)O2)c1	2	-5
O=C(CS(=O)(=O)c1ccc(C(F)(F)F)cn1)NC1CCCCCCC1	0	-2
Cc1ccc(-c2nc3ccc(C)cn3c2NC(=O)C2CCCCC2)cc1	-4	-3
CCCC(C)NC(=O)C1CCCN(S(=O)(=O)c2ccc(Br)cc2)C1 (stereo not given)	-1	2
C#CCn1c(=NC(=O)c2cc(C)no2)sc2cc(S(N)(=O)=O)ccc21	7	10
Cc1cnccc1NCCNC1CCSCC1	8	4
C=CCN1Cc2ccccc2N(CC(O)COC(C)(C)C)CCC1=O (stereo not given)	2	3
CCOC(=O)N1CCC(C(=O)NCc2ccccc2CN(CC)CC)CC1	7	1
CCC1CCCN(Cc2cc(C)no2)C1 (stereo not given)	23	10
C=CCn1c(O)c(N=NC(=O)c2ccccn2)c2cc(Br)ccc21	-3	-10
CC(C)=CCN1CCC(CCC(=O)Nc2cccc(C)c2)CC1	1	-2
O=S(=O)(c1cccnc1)N1CCC2(CCCCC2)C1	8	i
C=CCN(Cc1cccc(OC)c1)Cc1cccn1Cc1cccc(C(F)(F)F)c1	-2	1
O=C(Nc1ccc(OCCc2ccncc2)cc1)c1ccc[nH]1	6	1
CCc1ccccc1C(=O)N1CCNCC1C(=O)N1CCCC1 (stereo not given)	2	-2
O=C(OCc1ccccc1)N1C[C@H](Oc2ccccn2)[C@H]2C[C@@H]1CC[C@H]2O	27	35
Cc1nc2ccc(Cl)cn2c(=O)c1NC(=O)Nc1cccc(Cl)c1C	4	4
Cc1nn(C(C)C)c(C)c1NS(=O)(=O)c1ccc(F)c(C#N)c1	5	1
O=C(CNc1cccc(C(=O)N2CCc3ccccc32)c1)NCC(F)(F)F	-4	-3
COc1ccc(CC2CCN(C(=O)C(Cl)(Cl)Cl)CC2)cc1	4	-6
COc1cc(C)c(S(=O)(=O)NCCCN2CCOCC2)cc1C	14	13
Cc1nc(CC(=O)NC[C@H]2C[C@H]3C=C[C@H]2C32CC2)cs1	5	3
CSC(=N)N	5	-47
CS(=O)(=O)Oc1ccc(Cl)cc1	-2	1
CC(C)c1ccccc1OC1CC2CCC(C1)N2C(=O)c1ccc(CSc2ccc(Cl)cc2)cc1 (stereo not given)	-1	-7
COc1cccc(-c2ccc(NC(=O)C3CCCN(CCCn4cccn4)C3)cc2)c1 (stereo not given)	11	3
O=C(c1csc(Cc2ccccc2)n1)N1CC(c2ccncc2)C1	-2	15
CCC(C)N(Cc1ccccc1OS(=O)(=O)c1ccc(OC)cc1)C(=O)NC(C)C (stereo not given)	2	11
C[C@]12CC[C@H](O)CC1=CC[C@@H]1[C@@H]2CC[C@]2(C)C(c3cccnc3)=CC[C@@H]12	-10	-14
COc1cccc(NC(=O)C2(C)CCN2Cc2ccc3ccccc3c2)c1 (stereo not given)	-3	-10
CCCCC(C(N)=O)C1=NC(C)(C)Cc2ccccc21 (stereo not given)	-2	3
CCCSc1ncc(CN(C)Cc2n[nH]c3c2CCCC3)cn1	-8	-11
COCCN(Cc1cccc(OC)c1)CC(O)COCc1ccco1 (stereo not given)	8	7
CN(C)c1cc(CNC(=O)Nc2ccc(C#N)cc2)ccn1	3	3
Cc1cc(C(=O)N2CCC3(CN(C)C(=O)O3)C2)cc2sc(N)nc12 (stereo not given)	3	15
CCC(=O)N1CSCC1C(=O)N(C)CCc1ccccc1 (stereo not given)	1	0
COc1cccc(-c2cc(C(=O)Nc3ccncc3)c3ccccc3n2)c1	-8	-10
Cc1ccc(C(=O)COC(=O)c2ccccc2N(C)S(C)(=O)=O)cc1C	1	7
CCCC(C)(O)CNC(=O)c1cc(CC(C)C)[nH]n1 (stereo not given)	1	0

# Of the compounds above, 3 contain an NH in an aromatic ring:
molecule	NPYLR7 agonist	NPYLR7 agonist max-min
O=C(Nc1ccc(OCCc2ccncc2)cc1)c1ccc[nH]1	6	1
CCCSc1ncc(CN(C)Cc2n[nH]c3c2CCCC3)cn1	-8	-11
CCCC(C)(O)CNC(=O)c1cc(CC(C)C)[nH]n1 (stereo not given)	1	0

# Later entries.
molecule	NPYLR7 agonist	NPYLR7 agonist max-min
O=C(C1CCN(C2CCN(Cc3ccccc3OC(F)F)CC2)CC1)N1CCCC1	8	8
CCOCCOc1nc(-c2ccc(C(F)(F)F)cc2)n(-c2ccc(NC(=O)c3ccc([N+](=O)[O-])cc3Cl)cc2)n1	18	15
COc1ccc(-c2ccc(C)c(NC(=O)CC(C)C)c2)nn1	0	8
CC(Nc1c([N+](=O)[O-])c(=O)n(C)c2ccccc12)c1ccccc1 (stereo not given)	-3	2
CC(C)C1CN(C(=O)Cc2ccccn2)CCC(=O)N1Cc1ccc(F)cc1 (stereo not given)	-4	-9
COc1ccc(/C=C/C(=O)NNC(=O)COc2cc(C)cc(C)c2)cc1	-10	-13
CC(=O)Oc1ccc(N2C(=O)CC(Nc3ccc(N4CCOCC4)cc3)C2=O)cc1 (stereo not given)	-7	-6
Cc1ccc(-c2nc(OCC(C)C)nn2-c2cccc(NC(=O)C3CCC3)c2)cc1	6	14
Cc1ccc(C2=NN(C(=O)CN3CCN(C)CC3)C(c3ccccc3Cl)C2)cc1 (stereo not given)	45*	69*
CSc1nn(CC(=O)Nc2ccc3c(c2)OCCO3)c(N)c1-c1nc(-c2ccccc2)no1	-5	-14
Cc1nc(CNC(C)(CNC(=O)OC(C)(C)C)C(C)C)oc1C (stereo not given)	7	7
Clc1ccc(Nc2ccc(-n3ccnc3)nn2)cc1	4	1

# A second format for 7 compounds above.
# Values in the order: NPYLR7 agonist	NPYLR7 agonist max-min
COc1ccc(/C=C/C(=O)NNC(=O)COc2cc(C)cc(C)c2)cc1
    -10	-13
CC(=O)Oc1ccc(N2C(=O)CC(Nc3ccc(N4CCOCC4)cc3)C2=O)cc1 (stereo not given)
    -7	-6
Cc1ccc(-c2nc(OCC(C)C)nn2-c2cccc(NC(=O)C3CCC3)c2)cc1
    6	14
Cc1ccc(C2=NN(C(=O)CN3CCN(C)CC3)C(c3ccccc3Cl)C2)cc1 (stereo not given)
    45*	69*
CSc1nn(CC(=O)Nc2ccc3c(c2)OCCO3)c(N)c1-c1nc(-c2ccccc2)no1
    -5	-14
Cc1nc(CNC(C)(CNC(=O)OC(C)(C)C)C(C)C)oc1C (stereo not given)
    7	7
Clc1ccc(Nc2ccc(-n3ccnc3)nn2)cc1
    4	1

# Following part:
SMILES | NPYLR7 agonist | NPYLR7 agonist max-min
CNC(=O)[C@@]1(OCc2cccc(F)c2)CC(OCC2CC2)[C@@H]2OC(C)(C)O[C@@H]2C1 (stereo not given in full) | -5 | 5
Clc1ccc2nc(CNc3ccccc3OCC3CCCCO3)cn2c1 (stereo not given) | -1 | -4
CCOC(=O)c1c(-c2ccc(C(C)C)cc2)csc1N | -3 | -12
CS(=O)(=O)NCCN(c1ccccc1)C1CCCC1 | -1 | -2
C=C(C)CN(CC)C(=O)COc1ccc(OC)cc1 | 3 | 1
CC1Cc2ccccc2N1C(=O)CSc1nc2ccccc2c(=O)n1CC1CCCO1 (stereo not given) | -2 | -8
CC(C)(C)OC(=O)N[C@H]1CCC(=O)N(CCNc2ccc([N+](=O)[O-])cn2)C1=O | 24 | 16
Cc1ccc(C)c2sc(N(CCN3CCOCC3)C(=O)c3ccc(C#N)cc3)nc12 | 11 | 1
Cc1nc2n(n1)C(=O)C(C(c1ccc(Br)cc1)N1CCN(CCO)CC1)S2 (stereo not given) | 7 | 5
C(=N/Nc1ncnc2sc3c(c12)CCCC3)/c1cccnc1 | -14 | -11
CC1=NN(c2cccc(Cl)c2)C(=O)/C1=C\C=C\c1cccc([N+](=O)[O-])c1 | -10 | -1
Cc1nc(C)c(-c2ccc(SCC(=O)Nc3ccc(F)c(F)c3)nn2)s1 | -10 | -12
CC(C)C(=O)N(Cc1ccc(OS(=O)(=O)C(C)C)cc1)Cc1ccco1 | 15 | 17
CC(NC(=O)C1CC(c2ccc(Cl)cc2)=NO1)C(=O)NCc1ccccn1 (stereo not given) | 17 | 16
CCOc1ccc(NC(=O)N(Cc2ccc(OS(=O)(=O)c3ccc(F)cc3)cc2)C(C)C)cc1 | 0 | -6
CC(=O)N(Cc1ccncc1)c1nc2c(C)cc(Cl)cc2s1 | -1 | 0
Cc1sc2ncnc(N(C)Cc3nc(-c4ccccn4)no3)c2c1C | 2 | 1
CN(C)Cc1c2ccccc2cc2ccccc12 | 2 | 7
COCc1cc(C)nc2sc(C(=O)Nc3ccc(N4CCOCC4)cc3)c(N)c12 | -5 | -14
CCN1C(=O)/C(=C2\SC(=S)NC2=O)c2ccccc21 | -21 | -20
Cc1ccc(N2CCn3c2nc2c3c(=O)[nH]c(=O)n2C)c(C)c1 | 4 | 3
C=CCCC(O)(CCC=C)c1ccc(CN(Cc2cccc(F)c2)CC2CCCO2)o1 (stereo not given) | -8 | 0
COc1ccc(S(=O)(=O)Nc2ccc3c(c2)OC(F)(F)O3)cc1 | -2 | -3
COCCNC(=O)COc1coc(CN2CCN(c3ccccc3F)CC2)cc1=O | -2 | 38
CCC(C)N(Cc1ccncc1)C(=O)c1cccc(-c2noc(C)n2)c1 (stereo not given) | 17 | 3
COC(=O)c1ccc2c(=O)n(Cc3ccc(C(=O)NCCN4CCCCC4)cc3)c(=S)[nH]c2c1 | -1 | -8
CC(Oc1ccc(F)cc1)C(=O)Nc1cccc(-c2nnnn2C2CC2)c1 (stereo not given) | 6 | 7
COc1cc(C2Nc3ccccc3C(=O)N2C2CC2)ccc1OCC(=O)N1CCOCC1 (stereo not given) | 2 | 1
COc1ccc(C(=O)N(CC(=O)N2CCc3sccc3C2c2ccc(F)cc2)C2CC2)cc1 (stereo not given) | 0 | 11
O=C(/C=C/c1ccncc1)N1CCCC(N2CCN(c3cccc(Cl)c3)CC2)C1 (stereo not given) | 1 | -4
CN1CCCc2cc(C(CN)N3CCCC3)ccc21 (stereo not given) | 5 | 4
CCc1nn2c(C(=O)OC)cc(=O)nc2s1 | 22 | 8
Cc1ccccc1OCCN(C)C(=O)c1n[nH]c(C)c1C | -7 | -6
COC(=O)C1COCCN1C(=O)C1CCCN(C(=O)Nc2cccc(C)c2)C1 (stereo not given) | 9 | 6
O=C(NCCc1nc2ccccc2n1CCc1ccccc1)c1ccco1 | -3 | 0
COc1cc(C)c(Cl)cc1S(=O)(=O)NCc1ccc2c(c1)OCO2 | 7 | 2
CC(NC(=O)CN1CCOCC1(C)C)c1ccc2c(c1)CCCC2 (stereo not given) | -5 | -6
CCn1c(CC2CCNCC2)nn(Cc2csc(C)n2)c1=O | 11 | 7
O=C(NCc1cccc2c1OCO2)C1CC(c2cccc(F)c2)=NO1 (stereo not given) | 0 | 351
COc1ccc(-n2nc(C)c(-c3ccccc3)c2NC(=O)CN(C(=O)c2ccc(OC)cc2OC)C(C)C)cc1 | -2 | 5
CCC(=O)Nc1cccc(C(=O)NCCCc2ccncc2)c1 | 2 | -4
N#Cc1ccc(C=CC(=O)NCc2ccc(N3CCOCC3)nc2)cc1 | 28 | 18
COCc1cc(C)nc(OCC(=O)N/N=C\c2cc(Br)c(O)c(Br)c2)c1C#N | 1 | 3
CC(C)c1ccc(NC2CCCN(C(=O)c3ccc(Cn4cnnn4)cc3)C2)cc1 (stereo not given) | 6&18 | 7&5
COc1c(F)ccc(C(=O)N2CC[C@H](CO)[C@@H](O)C2)c1F | 2 | 0
COC(=O)CC1c2cc(OC)c(OC)cc2CCN1C(=O)c1cccc(C#N)c1 (stereo not given) | 5 | -2
O=C(Cn1cnc2c(nnn2-c2ccc(Cl)cc2)c1=O)N1CCN(c2ccccc2)CC1 | -3 | -9
Cc1ccc(N2C(=O)N(c3cccc(C)c3)C3CS(=O)(=O)CC32)cc1 (stereo not given) | -2 | -8
c1cc(CNc2cc(-c3nccnc3N3CCCC3)c3cc[nH]c3n2)ccn1 | 22 | 12
Cc1ccc(C(=O)CN2C(=O)NC3(CCCc4ccccc43)C2=O)cc1C (stereo not given) | -1 | -6
O=C(NC(Cc1ccccc1)c1ccccc1)c1csc(CSc2nnc(-c3ccco3)n2-c2ccc(Cl)cc2)n1 (stereo not given) | -1 | -3
CC1(C)NC(=O)N(Cc2ncc(-c3ccccc3Br)o2)C1=O | 8 | 7
CCc1ccc(CN(C)CC2CCN(CCc3cccc(F)c3)CC2)o1 | 2 | -4
Cc1cc(C)n2c(n1)nc(=S)n2CN(C)Cc1cccc(Cl)c1Cl | 13 | 6
Cn1c(-c2ccc3c(c2)OCO3)cc(=O)c2ccccc21 | -7 | -10
CCc1cccc(NC(=O)CCC(=O)N2CCCC2c2nonc2C)c1 (stereo not given) | 13 | 4
O=C(c1cn(Cc2ccccc2Cl)nn1)N1CCc2[nH]cnc2C1c1cccnc1 (stereo not given) | 2 | -3
